Screens as filed in PubChem BioAssay.
VACV Venus inh: qHTS for Stage-Specific Inhibitors of Vaccinia Orthopoxvirus: Venus Reporter Primary qHTS; Vaccinia virus Venus reporter expression, fluorescence; Potency, µM (titrated, usually from 36.5 µM), for the others: at the highest dose activity change, negative = inhibition, hits mostly inhibitors; actives 0.46% (n = 330,000); AID 720580, 2013; active means well fitted inhibition curve with a large enough effect; inconclusive means small, poorly fitted or top-dose-only effect; inactive means no such curve, though single readings can be large or run the other way; tested in A549 cells; further: nearly all actives have a fitted effect of over 30% in size; inactives centre near -10
Vaccinia mCherry: qHTS for Stage-Specific Inhibitors of Vaccinia Orthopoxvirus: mCherry Reporter Primary qHTS. AID 720579, 2013. Vaccinia virus mCherry reporter infection, fluorescence; about a quarter of the inactives have no number. actives 0.63% (n = 310,000). Potency, µM (titrated, usually from 36.5 µM), without a hit: at the top dose activity change, negative = inhibition, most hits filed as inhibitors; active = well fitted inhibition curve with a large enough effect; inconclusive = small, poorly fitted or top-dose-only effect; inactive = no such curve, though single readings can be large or run the other way; tested in A549 cells; further: nearly all actives have a fitted effect of over 35% in size; inactives centre near -10
* hit, by the source's call; i = inactive; ? = inconclusive; / = not tested or not shown; [ ] = another dose, or the depositor's remark. On the % scale 0 is the no-effect control and ±100 the full control effect; potency means the concentration at half of the fitted maximal effect.

Screens in order: VACV Venus inh, Vaccinia mCherry
> CCNC(=O)C1(C)CCN(C(=O)c2ccccc2C(F)(F)F)C1 (configuration not stated)
→ 2%, 4%
> O=C(NCCN1C(=O)S/C(=C\c2ccccc2F)C1=O)C1=COCCO1
→ ?, 0%
> O=C(CN1CCN(Cc2ccc3c(c2)OCO3)CC1)N1CCc2[nH]c3ccc(F)cc3c2C1
→ ?, -19%[1.46 µM]
> CCOC(=O)c1ccc(NC(=S)NCCCN2CCN(C3CCCCC3)CC2)cc1
→ -5%, -9%
> COc1ccc(C/C(C)=N/NC(=O)c2cc(C)oc2C)cc1
→ -8%, -3%
> Cc1ccc(C)c(N(C(=O)CNC(=O)c2ccco2)C(C(=O)NCC2CCCO2)c2ccccc2)c1 (configuration not stated)
→ -11%, -9%
> CCOc1ccc(-c2cc(C(=O)NCc3ccccc3)c3c(-c4ccc(CC)cc4)[nH]nc3n2)cc1
→ -3%, i
> NC(=O)c1ncn([C@@H]2O[C@H](CNCc3ccc(OCC(=O)Nc4nccs4)cc3)[C@@H](O)[C@H]2O)n1
→ -11%, i
> CCOC(=O)/C=C1\SCC(=O)N1CC(=O)NC(C)c1ccccc1 (configuration not stated)
→ 2%, i
> O=C(Nc1ccc2c(c1)OCO2)c1ccc(S(=O)(=O)N2CCCC2)cc1
→ -16%, -6%
> CC(=O)Nc1ccc(NC(=O)CSC2=NS(=O)(=O)c3cc(F)ccc3N2)cc1
→ 1%, -14%
> O=S(=O)(Cc1cc(Oc2ccccc2)nc(-c2ccccc2)n1)c1ccccc1
→ -5%, /
> O=C(C1=C(O)C(=O)N(Cc2cccnc2)C1c1ccccn1)c1cccs1 (configuration not stated)
→ -11%, i
> COCCCn1c(SCC(=O)Nc2ccc(F)cc2)nc2c(sc3ccccc32)c1=O
→ -11%, -2%
> O=C(Nc1ccc2oc(-c3ccncc3)nc2c1)c1ccccc1
→ -6%, i
> C=CCNC(=O)C12CCC(C)(C(=O)C1Br)C2(C)C (configuration not stated)
→ -13%, i
> CCc1cc2c(=O)[nH]cnc2s1
→ -22%, -10%
> CCCn1c(=NC(=O)c2ccco2)c(C(=O)OCC)cc2c(=O)n3ccccc3nc21
→ -9%, -20%
> Nc1nc2n(n1)C(=O)CC(c1ccccc1[N+](=O)[O-])N2 (configuration not stated)
→ -4%, i
> CC(C)CCNC(=O)c1ccc(Cn2c(=S)[nH]c3ccccc3c2=O)cc1
→ -1%, -14%

Four of the compounds above, field by field.
CCNC(=O)C1(C)CCN(C(=O)c2ccccc2C(F)(F)F)C1 (configuration not stated)
  VACV Venus inh: 2% | Vaccinia mCherry: 4%

O=C(NCCN1C(=O)S/C(=C\c2ccccc2F)C1=O)C1=COCCO1
  VACV Venus inh: ? | Vaccinia mCherry: 0%

O=C(CN1CCN(Cc2ccc3c(c2)OCO3)CC1)N1CCc2[nH]c3ccc(F)cc3c2C1
  VACV Venus inh: ? | Vaccinia mCherry: -19%[1.46 µM]

CCOC(=O)c1ccc(NC(=S)NCCCN2CCN(C3CCCCC3)CC2)cc1
  VACV Venus inh: -5% | Vaccinia mCherry: -9%

Carrying on:
Screens in order: VACV Venus inh, Vaccinia mCherry
> O=C(N/N=C/c1cc([N+](=O)[O-])ccc1O)c1cccc(N2CCCC2=O)c1
→ -2%, 6.3µM*
> COc1ccc(C)cc1S(=O)(=O)N1CCN(C(=O)c2ncoc2-c2cccc(F)c2)CC1
→ -26%, -30%
> Oc1c(C(c2ccccc2F)N2CCN(c3ccccc3F)CC2)sc2nc(-c3ccco3)nn12 (configuration not stated)
→ -4%, -1%
> O=c1cc(-c2ccccc2Cl)c2c([nH]1)CCC2
→ -7%, -7%
> CC1(C)S[C@@H]2[C@H](NC(=O)Cc3ccccc3)C(=O)N2[C@H]1C(=O)O
→ -14%, i
> Cc1cccc(CNC(=O)c2cnc3sc(N4CCCCCC4)nn3c2=O)c1
→ -5%, -13%
> COc1cccc(-c2csc(NC(=O)C3CC3)n2)c1
→ -24%, i
> CNC(=O)N(O)C1N(c2ccccc2)C(=S)SC1(C)C (configuration not stated)
→ -12%, -6%
> Oc1ccc(Nc2nc(-c3cccnc3)cs2)cc1
→ ?, ?
> O=C(Nc1cccc(C(F)(F)F)c1)c1cc2ccc3cccnc3c2[nH]1
→ -12%, i
> CCn1c(=O)cc(OCC(=O)N2CCN(c3ccc(C(C)=O)cc3)CC2)c2ccccc21
→ -4%, -13%
> CCCCOCCCNCC(=O)Nc1ccc(S(N)(=O)=O)cc1
→ 3%, -2%
> COC(=O)c1ccccc1COc1cccn2c(N(C)Cc3cccs3)c(C)nc12
→ -19%, 14%
> Cc1ccc(C)c(C(=O)OCC(=O)N(C)c2ccccc2)c1
→ -6%, -2%
> CC(C)(C)NC(=O)CCSc1nc(-c2ccc3c(c2)OCO3)cc(C(F)(F)F)n1
→ -1%, -6%
> CN(C(=O)c1ccc(NC(=O)Cc2cccc(NC(=O)C3CCCN(C(=O)C4CC4)C3)c2)cc1)C1CCCC1 (configuration not stated)
→ -11%, i
> O=C1COc2ccc(C(=O)COC(=O)Cc3ccccc3F)cc2N1
→ 0%, -21%
> CNc1c(NS(=O)(=O)c2ccc3c(c2)CCCC3)c(=O)oc2ccccc12
→ -15%, -2%
> O=C(C1CCN(Cc2cc(Cl)ccc2O)CC1)N1CCN(Cc2ccccc2)CC1
→ -23%, -16%
> Cc1ccc(NC(=S)NCCN2CCOCC2)cc1
→ -6%, -15%

Full records, looked up by structure. Order of screens: VACV Venus inh	Vaccinia mCherry
Profile of CC1(C)S[C@@H]2[C@H](NC(=O)Cc3ccccc3)C(=O)N2[C@H]1C(=O)O → -14%	i
Profile of COC(=O)c1ccccc1COc1cccn2c(N(C)Cc3cccs3)c(C)nc12 → -19%	14%

Further records follow:
Screens in order: VACV Venus inh, Vaccinia mCherry
> C[N+]1(C2CCC3CCC2C3O)CCCC1 (configuration not stated)
→ 3%, -1%
> Cn1nc(-c2ccccc2)c(C(=O)NC(C(=O)O)c2ccccc2)c1Cl (configuration not stated)
→ -6%, i
> O=C(CSc1nc2ccccc2n1CCc1ccccc1)N1CCOCC1
→ 1%, i
> CCOC(=O)Cc1csc(NS(=O)(=O)c2ccc(C(F)(F)F)cc2)n1
→ -13%, -2%
> Cn1/c(=N/NC(=O)c2ccccc2F)sc2ccccc21
→ -11%, ?
> O=C(N/N=C\c1ccccc1F)c1ccc(-c2ccccc2)cc1
→ 10%, -10%
> COc1ccc(C(=O)c2c(O)cc(-c3ccc(OC)cc3)oc2=O)cc1
→ 9%, -12%
> O=C(COc1ccc2ccccc2c1)NN1C(=O)c2ccccc2C1=O
→ -3%, -18%
> COCCNC(=O)CSc1cc(=O)n(C)c2cc(Cl)ccc12
→ -8%, i
> COc1cc2c(cc1OC)C(c1cccc([N+](=O)[O-])c1)=NCC2
→ -24%, -21%
> COc1ccc(NC(=O)CC(C(=O)O)C(C)c2ccccc2)cc1 (configuration not stated)
→ -8%, i
> Cc1ncc(C(=O)O)n1C(C)c1ccccc1 (configuration not stated)
→ -14%, -9%
> O=C1c2ccccc2NC(c2cn[nH]c2-c2ccc(Cl)cc2)N1O (configuration not stated)
→ -18%, ?
> Cc1ccc(/C=C(\C#N)C(=O)Nc2cccc3ncccc23)o1
→ 14%, -6%
> O=C1C=C2C=C[C@@H]3CC2(O1)[C@H]1CCCCN31
→ -25%, ?
> Cc1c(N=C2NC(=O)C(CC(=O)Nc3ccc(Cl)cc3)S2)c(=O)n(-c2ccccc2)n1C (configuration not stated)
→ -23%, /
> COc1cccc(C2CC(C(F)(F)F)n3ncc(C(=O)NCC4CCCO4)c3N2)c1 (configuration not stated)
→ -16%, i
> COc1ccccc1-n1c(SCC(=O)N2CCCCC2)nc2cccnc21
→ -11%, -15%
> CCCCC(=O)Nc1ccc(NC(=S)NC(=O)CCCCl)cc1OC
→ ?, ?
> Cn1c(N)c(C(=O)c2ccccc2)c(=O)n(C)c1=O
→ -16%, /
> Cc1cccc(-n2nnnc2-c2cnccc2C(F)(F)F)c1C
→ 0%, -12%
> O=C(CN1C(=O)NC2(CCCCCC2)C1=O)Nc1ccc([N+](=O)[O-])cc1
→ 5%, -3%
> NNC(=O)c1oc2nc(-c3ccccc3)cc(-c3ccco3)c2c1N
→ 6%, ?
> CCc1cccc(C)c1NC(=O)C1CCCN1S(=O)(=O)c1cccc2nsnc12 (configuration not stated)
→ 3%, -9%
> CCN1CCN(C(=S)Nc2cccc([N+](=O)[O-])c2)CC1
→ -8%, -10%
> Cc1ccsc1/C=N/NC(=O)c1ccc([N+](=O)[O-])cc1
→ -5%, -19%
> CCOC(=O)c1sc(NC(=O)Nc2ccccc2Cl)cc1C
→ 10µM*, ?
> Cc1ccc(C)c(OCCC(=O)OCC(=O)N(C)c2c(N)n(Cc3ccccc3)c(=O)[nH]c2=O)c1
→ -2%, -9%
> O=C(CC(Nc1ccccc1)C(=O)O)c1ccccc1 (configuration not stated)
→ -9%, -12%
> O=C(Cn1nc(-c2ccccc2)c2cnc3ccc(F)cc3c21)NC1CCCC1
→ 11%, 0%
> CN(C)c1ccc(/C=C2\CCCCC2=O)cc1
→ 3%, -7%
> COc1ccc(OC)c(CC(NC(C)=O)C(=O)NC2CCN(c3c(Cc4ccccc4)c(C)nc4ncnn34)CC2)c1 (configuration not stated)
→ -7%, i
> CP(=O)(Nc1cc(Cl)ccc1Cl)c1nc2c(s1)CCCC2 (configuration not stated)
→ 0%[7.34 µM], -10%[7.34 µM]
> CC(C)N(C(=O)[C@H]1C[C@H](CC(=O)NCCN2CCOCC2)C(=O)N2CCc3c([nH]c4ccc(Cl)cc34)[C@]12C)C(C)C
→ -23%, -6%
> COc1ccc(CNC(=O)C2C3C=CC4(CN(Cc5cccnc5)C(=O)C24)O3)cc1 (configuration not stated)
→ 0%, -2%
> O=C(N/N=C/c1ccc[nH]1)c1ccc2c(c1)OCO2
→ -4%, -17%
> COc1ccccc1C(=O)NCC(=O)N1CCN(S(=O)(=O)c2ccc3c(c2)OCCO3)CC1
→ -16%, -7%
> CCN(CC)c1ccc(/C=N/Nc2nc(C)cc(C)n2)c(O)c1
→ ?, 2.5µM*
> Cc1cccc(N2C(=O)Cc3ccccc3C2=O)c1
→ -8%, -4%
> CC(C)CCNC(=O)Cn1nc(N2CCN(c3ccccc3)CC2)ccc1=O
→ 7%, -6%
> CCOC(=O)CN1C(=O)C(=O)c2cccc(C)c21
→ 7%, -7%
> CCc1ccccc1NC(=O)Cc1ccc(NC(=O)N2CCCCc3ccccc32)cc1
→ -15%, -12%
> CCCNC(=O)[C@H](Cc1c[nH]c2ccccc12)NC(=O)c1ccccc1Cl
→ -14%, i
> COc1ccc([C@@H]2CC(=O)c3c(O)cc(O)cc3O2)cc1O
→ -5%, -16%
> Cc1ccc(-c2nnc(SCC(=O)N3CCN(c4ccccc4)CC3)o2)cc1
→ -8%, -11%
> Cn1c(=O)c2c(nc(CN3CCN(c4ccccc4)CC3)n2CCc2ccccc2)n(C)c1=O
→ -10%, /
> O=C(CCNC(=O)c1ccccc1Cl)Nc1cc(S(=O)(=O)N2CCOCC2)ccc1N1CCCC1
→ -1%, i
> CC(C)Oc1ccc(-c2cc(C(=O)NCCN3CCOCC3)c3ccccc3n2)cc1
→ -2%, -5%
> CN(Cc1ccccn1)C(=O)c1cc(COc2ccc(F)c(F)c2)on1
→ -17%, -8%
> Cc1csc(NC(=O)CN2C(=O)COc3ccc(Cl)cc32)n1
→ -3%, -6%
> CCCc1cc2c(=O)c(-c3ccc4c(c3)OCCO4)coc2cc1OS(C)(=O)=O
→ ?, 10µM*
> CCCCC(=O)Nc1nnc(S(=O)(=O)N(CC)c2cc(C)cc(C)c2)s1
→ -6%, -13%
> COc1ccc(-n2c(SCC(=O)C(C)(C)C)nc3c(sc(=S)n3-c3ccccc3)c2=O)c(OC)c1
→ -20%, i
> Cn1cnnc1SC1CCCCC1NS(=O)(=O)c1ccccc1 (configuration not stated)
→ 3%, -15%
> BrCC(Br)(Br)Br
→ -13%, 0%
> CCOC(=O)c1cc(C#N)c(SCC(=O)OC)[nH]c1=O
→ -10%, i
> CC1CC(C)CN(C(=O)C(Cc2ccccc2)NC(=O)c2ccccc2)C1 (configuration not stated)
→ -16%, -6%
> CCN(CC)CCNC(=O)C(=O)Nc1c2c(nn1-c1ccc(F)cc1)CSC2
→ -9%, -6%
> O=C(NC1CC1)C1CCN(c2ncccn2)CC1
→ -8%, -19%
> O=C(O)c1ccccc1NCc1ccsc1
→ 1%, i

Reformatted: results already given.
| SMILES | VACV Venus inh | Vaccinia mCherry |
| --- | --- | --- |
| CCNC(=O)C1(C)CCN(C(=O)c2ccccc2C(F)(F)F)C1 (configuration not stated) | 2% | 4% |
| O=C(NCCN1C(=O)S/C(=C\c2ccccc2F)C1=O)C1=COCCO1 | ? | 0% |
| O=C(CN1CCN(Cc2ccc3c(c2)OCO3)CC1)N1CCc2[nH]c3ccc(F)cc3c2C1 | ? | -19%[1.46 µM] |

Continued.
Screens in order: VACV Venus inh, Vaccinia mCherry
> CN(Cc1ccco1)C(=O)C1CCC(=O)N1Cc1ccc(F)cc1 (configuration not stated)
→ -5%, /
> COc1cccc(-c2nnc(NC(=O)c3ccc(S(=O)(=O)N4CC(C)OC(C)C4)cc3)o2)c1 (configuration not stated)
→ ?, ?
> COCOCCn1cc(CN2CCS(=O)(=O)N(Cc3ccc(-c4ccc(C)cc4)cc3)C(C)C2=O)nn1 (configuration not stated)
→ -20%, i
> CCS(=O)(=O)N1CCc2cc(C(=O)Nc3ccc(OC)c(Cl)c3)ccc21
→ -18%, -18%
> Cc1ccccc1NC(=O)CSc1n[nH]c(-c2ccco2)n1
→ -1%, -19%
> O=C(Nc1cccc(F)c1)c1cnc2sc(N3CCCC3)nn2c1=O
→ -28%, i
